Screening results from PubChem.
ALR H2O2 inh: inhibitors of human ALR sulfhydryl oxidase, primary screen, biochemical, H2O2 detection, HRP-luminol luminescence, single point; FAD-linked sulfhydryl oxidase ALR (Homo sapiens), P55789; inhibition, % (test concentration not listed); 290,000 tested, 3.8% active; purified ALR, DTT oxidation;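 active = mean and each replicate at 75% or more; inconclusive = only one of the two met; inactive = neither met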;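 note: stock transfer was 7.5 nL into about 7.5 µL; 0% = neutral wells and 100% = wells with inactivated enzyme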
Beta2AR agonist: beta2AR agonists driving receptor internalization, primary screen, cell-based, FAP fluorogen, flow cytometry | Am2.2-beta2AR cells; reference of the scale not given here | 340,000 tested, 0.43% active | response, % (no concentration beside the values) | Beta-2 adrenergic receptor (Homo sapiens), P07550 | AID 504454, 2011;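 active = response above a set limit, near 3 SD of response in nonfluorescent compounds, cut at about 42% in these data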;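 note: stock transfer was 100 nL into about 11 µL; a reference agonist was the positive control; negative values mostly stem from fluorescent compounds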
Target sequence (P07550 whole entry, looked up): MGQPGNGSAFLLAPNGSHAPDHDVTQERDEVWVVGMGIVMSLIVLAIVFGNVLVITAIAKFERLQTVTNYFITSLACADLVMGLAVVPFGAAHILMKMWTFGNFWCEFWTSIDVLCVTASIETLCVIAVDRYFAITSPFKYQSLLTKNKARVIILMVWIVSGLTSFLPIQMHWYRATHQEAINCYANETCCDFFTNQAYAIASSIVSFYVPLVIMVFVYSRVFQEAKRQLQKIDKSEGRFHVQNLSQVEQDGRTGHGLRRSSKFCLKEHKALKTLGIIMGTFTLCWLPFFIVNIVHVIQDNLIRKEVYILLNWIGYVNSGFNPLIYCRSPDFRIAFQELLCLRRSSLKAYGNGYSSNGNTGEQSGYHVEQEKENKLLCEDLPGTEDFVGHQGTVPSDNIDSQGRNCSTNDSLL
LANA-H2A inh: blockers of LANA interaction with H2A/H2B – biochemical, FP readout, HTS, primary screen; Protein LANA1 (Human herpesvirus 8 type P (isolate GK18)), Q9QR71; cell-free LANA-H2A/H2B peptide, fluorescence polarization; inhibition, % (no concentration beside the values); 320,000 tested, 0.6% active; in the data active = inhibition mostly above about 10%, no sharp cut-off; inactive = mostly below about 6.7%;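 note: stock transfer was 7.5 nL into about 10 µL; 0% = median of vehicle wells and 100% = median of positive control wells; one replicate is shown; the record names a cut of 25% in any replicate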
Vif A3G: inhibitors of Vif binding to APOBEC3G peptide, primary screen, biochemical, TR-FRET, GST-Vif 1-94, biotin-A3G peptide, dose response retest (AID 1117319). Virion infectivity factor (Human immunodeficiency virus type 1 group M subtype B (isolate …. 260,000 tested, 0.57% active. TR-FRET GST-Vif / biotin-A3G peptide binding; higher % means a stronger effect; test concentration not given here; strong numbers were not always called active. inhibition, %, or IC50 in µM where a hit was titrated;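 active = above the screen mean plus three standard deviations and confirmed in dose response; inconclusive = results disagree or hit not tested in dose response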;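 note: Vif residues 1-94 fused to GST binding biotinylated APOBEC3G peptide 110-148; 0% = full assay without inhibitor and 100% = GST in place of GST-Vif; retest series ran down from 100 µM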
Calb FLC: C. albicans growth inhibition with fluconazole, primary screen, CaCi-2 strain, Alamar Blue fluorescence. C. albicans CaCi-2 (fluconazole-resistant clinical isolate) + fluconazole, 48 h. growth inhibition, % (concentration not given with the values). 300,000 tested, 0.57% active. AID 1979, 2009;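 active = most replicates above 75%; inconclusive = exactly half above 75%; inactive = most below 75%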;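 note: all wells also contain fluconazole at 8 µg/ml as a sub-toxic cotreatment; 0% = median of DMSO wells and 100% = median of geldanamycin control wells; wells of about 8 µL received 7.5 nL stock; the first replicate is given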
RanGTP-Imp inh: inhibitors of RanGTP-importin-beta interaction, primary screen, biochemical, FRET, CFP-Ran, YFP-importin-beta, homogeneous; Ran GTPase (GTP-bound) - importin-beta complex; cell-free CFP-Ran/YFP-importin-beta FRET ratio; inhibition, % (concentration not given with the values); 300,000 tested, 1.1% active;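 active = most replicates above 15%; inconclusive = exactly half above 15%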;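 note: 0% = DMSO wells and 100% = Ran loaded with GDP instead of GTP; wells of about 40 µL received 100 nL stock; the first replicate is given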
HNF4A DNA FP: change in binding of human HNF4A to DNA, primary screen, biochemical, fluorescence polarization, FITC-DNA; activity change, % at 10 µM; Hepatocyte nuclear factor 4-alpha (Homo sapiens), P41235; 360,000 tested, 0.3% active; 1 h; in the data active = activity change above about 30%, passing the limit was not always enough;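 note: controls were the assay level and a saturating level of protein; the project sought stronger binding though the title names inhibitors; some compounds called inactive have numbers as strong as hits; positive values seem to mean higher polarization but the record does not say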
Target sequence (P41235 whole entry, looked up): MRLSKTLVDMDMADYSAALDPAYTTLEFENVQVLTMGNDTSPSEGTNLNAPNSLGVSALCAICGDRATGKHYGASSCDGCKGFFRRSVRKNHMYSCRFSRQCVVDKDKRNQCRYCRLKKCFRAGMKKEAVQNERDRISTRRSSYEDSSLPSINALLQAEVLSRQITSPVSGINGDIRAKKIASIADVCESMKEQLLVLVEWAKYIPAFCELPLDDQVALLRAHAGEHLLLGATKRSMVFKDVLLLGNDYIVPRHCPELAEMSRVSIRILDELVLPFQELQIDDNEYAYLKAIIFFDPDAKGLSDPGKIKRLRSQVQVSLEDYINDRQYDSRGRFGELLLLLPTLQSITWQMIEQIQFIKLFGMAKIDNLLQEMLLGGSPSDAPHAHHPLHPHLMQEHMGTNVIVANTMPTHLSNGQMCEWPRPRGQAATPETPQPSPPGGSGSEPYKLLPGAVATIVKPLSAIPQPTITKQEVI
The depositor's hits bear a star; ? = inconclusive; · = no result given; & = joins results of further samples.

entry	SMILES	Calb FLC	HNF4A DNA FP	RanGTP-Imp inh	Beta2AR agonist	ALR H2O2 inh	LANA-H2A inh	Vif A3G
1	Cc1ccc2c(c1)N(C(=O)CCC(=O)N1CCOCC1)CCO2	-8	-1.1	-0.8	-1	-6	-0.8	·
2	O=C(COc1ccc(=O)n(-c2ccccc2)n1)Nc1ccccc1	23	0.0	0.8	-2	0	2.0	6%
3	CC(C)C[C@H](NC(=O)N1CC(=O)Nc2ccccc21)C(=O)N[C@H](C(=O)O)c1ccccc1	1	4.9	2.6	-1	·	-6.1	·
4	COCCn1c(SCC(=O)NCc2ccco2)nnc1C(C)C	-1	4.0	-0.4	1	-2	1.7	6%
5	O=c1c(Cc2ccc(Cl)cc2)c(O)ccn1Cc1cccc(Cl)c1	-7	-3.7	4.2	14	·	3.4	15%
6	COc1cc(N=Nc2ccc3ccccc3c2)ccc1O	25	3.5	-5.6	13	·	-2.9	·
7	CCCc1nc2c(C)cc(C)cc2c(N)c1CC	10	2.4	-1.1	-13	-6	3.0	-7%
8	COc1ccc(Cl)cc1N(C)C(=O)CCc1nc(-c2ccc(C)cc2)no1	12	1.6	-2.3	-3	-15	-3.6	4%
9	O=C(Oc1ccc(OC(=O)c2ccco2)c(S(=O)(=O)c2ccc(Br)cc2)c1)c1ccco1	-2	0.7	-3.2	3	-2	4.2	14%
10	O=C(CSc1nnc(NC(=O)c2ccccc2F)s1)NCc1ccco1	·	-2.3	·	2	0	-6.0	·
11	CNCc1cc2ccc(C)cc2[nH]c1=O	-4	-1.4	4.7	-9	-7	-1.7	2%
12	COc1ccc(CN(Cc2ccco2)S(=O)(=O)c2ccc(S(=O)(=O)N3CCCC3)cc2)cc1	-40	-0.7	-2.8	5	-28	-9.5	-3%
13	CCC(C)c1ccccc1NC(=O)CN(CC)CC(=O)Nc1ccc2c(c1)OCCO2 (centres undefined)	·	-0.3	·	15	-12	23	·
14	CSc1nsc(SCC(=O)Nc2ccc(O)c(C(=O)O)c2)n1	0	3.7	-0.7	-1	82*	4.0	·
15	CCOc1ccc(NS(=O)(=O)N(C)C)cc1	-8	1.0	2.9	21	-2	-7.7	-3%
16	CCOC(=O)C1(CCCc2ccccc2)CCN(C(=O)c2ocnc2C)CC1	-15	1.9	1.1	2	-2	-1.7	-1%
17	CC(C)CC(C(=O)Nc1oc(-c2ccccc2)c(-c2ccccc2)c1C#N)N1C(=O)c2ccccc2C1=O (centres undefined)	·	2.1	-17	22	-3	1.2	-3%
18	Cc1ccc(S(=O)(=O)N2C/C=C\CN(S(=O)(=O)c3ccccc3Br)CC2)cc1	·	-1.2	·	1	·	·	1%
19	CC(C)n1cc([C@@H]2C[C@H]3CN(Cc4cccc(Cl)c4)C(=O)[C@]34CCCN24)cn1	-19	1.0	1.4	1	3	5.6	0%
20	Cc1ccc(NC2=NCC(=O)N2Cc2cccs2)cc1C	4	-5.2	-2.1	-4	3	-1.9	2%
21	Cc1ccc(C)c(-c2cc(C(=O)Nc3cccnc3)c3ccccc3n2)c1	-13	0.2	1.5	-1	-4	0.8	·
22	CN1CCc2c(sc3c2c(=O)n(-c2cccc(Cl)c2)c2nncn32)C1	-1	5.2	10	1	-14	1.2	-1%
23	COc1ccc(NS(=O)(=O)c2ccc(N)c(C(=O)O)c2)cc1	13	-2.7	-1.1	-2	-10	-0.8	8%
24	CC1(c2ccc(OC(F)F)cc2)NC(=O)N(CC(=O)Nc2ccc(Cl)cc2F)C1=O (centres undefined)	-13	1.8	2.2	1	-4	4.7	·
25	CCOC(=O)N1CCN(C(=O)CNCc2cccs2)CC1	9	0.2	1.7	4	-8	2.3	7%
26	CNc1nc(N)nc(OC(C(F)(F)F)C(F)(F)F)n1	3	2.9	-0.5	-3	-2	-1.9	-8%
27	CC(C)c1ccccc1NS(=O)(=O)c1cccs1	2	1.0	3.1	-3	7	-4.9	·
28	O=C(Nc1ccc(F)c([N+](=O)[O-])c1)C1CCCO1 (centres undefined)	-13	1.2	3.0	5	-26	-4.4	·
29	COCc1ccc(-c2c(-c3cc(OC)cc(OC)c3)oc(=O)c3cc(OC)c(OC)cc23)cc1	·	0.1	·	6	-22	-5.3	·
30	CCOC(=O)c1c(NC(=O)c2ccc(N3C(=O)[C@@H]4[C@H](C3=O)[C@H]3C=C[C@@H]4C3)cc2)sc2c1CC(C)CC2 (some centres undefined)	-3	-1.3	-0.9	8	-15	2.5	18%
31	CNC(=O)COC(=O)c1ccc2c(c1)S(=O)(=O)c1ccccc1C2=O	1	3.4	-1.8	-2	3	1.6	·
32	CCc1ccc(C(=O)/C=C/Nc2ccc(S(=O)(=O)Nc3onc(C)c3C)cc2)cc1	14	-2.5	5.5	3	97*	-1.6	3%
33	CN(C(=O)CSc1nnnn1-c1ccccc1)C1CCCCC1	-13	1.6	4.6	-4	-2	3.9	-4%
34	Cc1ccc(C(=O)CSc2nnnn2Cc2ccccc2)cc1C	-7	0.0	-0.5	-5	-8	1.6	4%
35	CCOc1cc(C#N)c(NC(=O)c2cccnc2Cl)cc1OCC	-10	2.0	5.7	0	-6	-1.1	-3%
36	CCOC(=O)CSc1nnc(-c2ccccc2NC(=O)c2ccccc2)o1	-2	1.1	-1.3	-7	-6	-2.4	>100µM*
37	CCOc1nc(Nc2ccc([N+](=O)[O-])cc2)nc(NC(C)(C)C)n1	-2	-3.0	2.2	-10	-3	-3.1	-5%
38	Cn1c(-c2cccs2)nc2ccccc21	-4	-0.5	-9.8	-10	29	-3.3	·
39	CC(CNC(=O)C1CCCCC1C(=O)O)c1ccccc1 (centres undefined)	-24	0.2	4.1	-1	-16	-1.5	30%
40	CCn1c(C(C)NC(=O)Cc2ccccc2)nc2ccccc21 (centres undefined)	0	7.0	-1.1	-4	-11	4.0	26%
41	CCOc1ccccc1NC1=NC2CS(=O)(=O)CC2S1 (centres undefined)	1	-1.7	5.7	-1	-1	0.1	·
42	Cc1nn2c(=O)cc(CSCC(=O)Nc3ccccc3Cl)nc2s1	2	3.0	0.4	-8	36	·	·
43	CCc1ccc(OCc2nnc(SCC(=O)NCc3ccco3)o2)cc1	2	1.5	-1.1	-4	1	-2.6	-5%
44	COc1cccc(CN2CCNC(=O)C2CC(=O)N2CCOc3ccccc3C2)c1OC (centres undefined)	-6	1.3	-4.9	1	-10	-1.2	17%
45	CCOc1ccc(OCCOC(=O)CN(C)S(=O)(=O)c2ccc(NC(C)=O)cc2)cc1	8	-8.7	5.7	16	-1	-0.8	2%
46	CC(C)Oc1cccc(-c2cc(C(=O)NC(=S)N(C)c3ccccc3C(=O)O)c3ccccc3n2)c1	0	-0.7	-2.3	-6	-22	-1.2	3%
47	Cc1ccc2cccc(S(=O)(=O)N3CCN(c4cccc(Cl)c4)CC3)c2n1	-6	22	1.0	4	-6	-7.4	0%&0%
48	Cc1ccc(-c2nc(C(=O)NCCCN(C)C)cc3c2[nH]c2ccccc23)cc1	1	-5.7	0.7	-14	-9	-5.2	-8%
49	O=C(Nc1ccc(Br)cc1)C1CCN(c2cnccn2)CC1	-4	4.5	0.2	-2	0	6.0	·
50	CCOC(=O)CNC(=O)CSc1ncnc2c1cnn2-c1ccc(C)cc1	-69	-0.7	1.9	1	0	4.2	-6%
51	CC1CN(C(=O)N2c3ccccc3Sc3ccccc32)CC(C)O1 (centres undefined)	0	2.7	1.4	15	99*	-3.9	?
52	CCc1ccc(N2C(=O)c3cc(N4CCOCC4)c([N+](=O)[O-])cc3C2=O)cc1	-3	·	4.0	·	-13	-8.7	·
53	CC[C@]1(C(=O)OC)[C@H]2C(=O)N(Cc3ccccc3)C(=O)[C@H]2[C@H]2CN=C(SCC3CC3)N21	·	-0.9	·	16	·	·	0%
54	O=C(c1cc(-c2ccc(F)cc2)on1)N1CCOCC1	1	-0.3	4.1	2	1	-1.1	·
55	CCOc1ccc(Nc2oc(-c3ccccc3Cl)nc2C#N)cc1	5	·	-2.3	·	-10	1.5	3%
56	Cc1cccc(-c2ncc(S(=O)(=O)C(C)(C)C)c(N)n2)c1	6	-1.9	-1.9	4	-4	2.1	-9%

Later entries
entry	SMILES	Calb FLC	HNF4A DNA FP	RanGTP-Imp inh	Beta2AR agonist	ALR H2O2 inh	LANA-H2A inh	Vif A3G
57	O=C(Nc1ccccc1)OCc1cnc(Cl)s1	-6	-3.3	?	0	-23	2.3	-4%
58	CCOC(=O)C1(Cc2ccc(Cl)cc2)CCN(Cc2nccn2CC)CC1	1	-1.5	?	4	-1	0.0	-4%
59	CCc1noc(C)c1C(=O)N1CCN(S(=O)(=O)c2ccc(C)cc2C)CC1	17	-4.0	3.1	3	·	·	5%
60	Cc1ccc(CNC(=O)CCn2cc(-c3ccc(C)cc3)nc2-c2ccncc2)cc1	-10	1.7	-1.6	-11	28	-1.3	·
61	CC(C)Oc1ccc(S(=O)(=O)N2CCOCC2)cc1NC(=O)C1CSC2(C)CCC(=O)N12 (centres undefined)	-1	-1.3	-2.9	4	·	0.9	7%
62	O=C(Nc1cccc2ccccc12)c1nn(C23CC4CC(CC(C4)C2)C3)cc1[N+](=O)[O-]	-38	0.4	-0.1	5	-2	-2.4	1%
63	O=C(COC(=O)/C=C/c1cccc(Cl)c1)Nc1c(F)cccc1F	·	-3.2	·	2	1	-0.3	12%
64	O=C(CSCc1ccccc1)Nc1cccc(C(=O)Nc2ccc(C(=O)O)cc2)c1	1	3.5	·	0	24	0.0	5%
65	COc1cc(C(=O)OCc2cc(=O)n3ccsc3n2)ccc1OC(C)C	·	-0.1	·	2	·	3.5	6%
66	CC1(C)CC2(CCCN(C(=S)Nc3ccccc3)C2)CCO1 (centres undefined)	7	-1.9	-2.8	4	·	-6.3	·
67	COc1ccc(CNCc2ccncc2)cc1OC	7	-3.1	1.0	-1	-14	2.7	-12%
68	Cc1cc(NC(=O)CSc2cn(CCNC(=O)c3ccc(Cl)cc3)c3ccccc23)no1	2	0.8	3.2	-13	9	2.6	-3%
69	COCCNC(=S)NNC(=O)c1ccco1	-2	-0.8	0.3	5	24	61*	?

Outcome played no part in choosing rows (roughly 6.3% active in at least one column).
